# Screening results as filed in PubChem BioAssay.
# LANA-H2A inh: blockers of LANA interaction with H2A/H2B – biochemical, FP readout, HTS, primary screen; Protein LANA1 (Human herpesvirus 8 type P (isolate GK18)), Q9QR71; cell-free LANA-H2A/H2B peptide, fluorescence polarization; inhibition, % (concentration not given with the values); 0.6% of 320,000 active; AID 2629, 2010; in the data active = inhibition mostly above about 10%, no sharp cut-off; inactive = mostly below about 6.7%;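 also: stock transfer was 7.5 nL into about 10 µL; 0% = median of vehicle wells and 100% = median of positive control wells; one replicate is shown; the record names a cut of 25% in any replicate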
# HNF4A DNA FP: change in binding of human HNF4A to DNA, primary screen, biochemical, fluorescence polarization, FITC-DNA. Hepatocyte nuclear factor 4-alpha (Homo sapiens), P41235. 1 h. activity change, % at 10 µM. 0.3% of 360,000 active; in the data active = activity change above about 30%, passing the limit was not always enough;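 also: controls were the assay level and a saturating level of protein; the project sought stronger binding though the title names inhibitors; some compounds called inactive have numbers as strong as hits; positive values seem to mean higher polarization but the record does not say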
# Target sequence (P41235 whole entry, looked up): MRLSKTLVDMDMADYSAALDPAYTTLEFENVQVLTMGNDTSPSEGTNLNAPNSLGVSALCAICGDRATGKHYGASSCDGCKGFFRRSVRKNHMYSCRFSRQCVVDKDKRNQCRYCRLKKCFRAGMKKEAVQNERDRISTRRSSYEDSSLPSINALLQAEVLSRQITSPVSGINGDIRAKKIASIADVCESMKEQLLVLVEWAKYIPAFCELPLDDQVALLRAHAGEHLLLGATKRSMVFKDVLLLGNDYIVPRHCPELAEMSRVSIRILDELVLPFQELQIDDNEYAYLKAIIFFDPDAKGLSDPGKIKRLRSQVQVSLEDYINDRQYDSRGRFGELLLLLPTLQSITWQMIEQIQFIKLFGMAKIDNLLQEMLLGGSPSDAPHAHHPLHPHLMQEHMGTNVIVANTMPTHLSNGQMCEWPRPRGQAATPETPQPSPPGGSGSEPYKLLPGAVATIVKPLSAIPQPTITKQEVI
# Beta2AR agonist: beta2AR agonists driving receptor internalization, primary screen, cell-based, FAP fluorogen, flow cytometry. Beta-2 adrenergic receptor (Homo sapiens), P07550. Am2.2-beta2AR cells; reference of the scale not given here. response, % (concentration not given with the values). 0.43% of 340,000 active;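 active = response above a set limit, near 3 SD of response in nonfluorescent compounds, cut at about 42% in these data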;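 also: stock transfer was 100 nL into about 11 µL; a reference agonist was the positive control; negative values mostly stem from fluorescent compounds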
# Target sequence (P07550 whole entry, looked up): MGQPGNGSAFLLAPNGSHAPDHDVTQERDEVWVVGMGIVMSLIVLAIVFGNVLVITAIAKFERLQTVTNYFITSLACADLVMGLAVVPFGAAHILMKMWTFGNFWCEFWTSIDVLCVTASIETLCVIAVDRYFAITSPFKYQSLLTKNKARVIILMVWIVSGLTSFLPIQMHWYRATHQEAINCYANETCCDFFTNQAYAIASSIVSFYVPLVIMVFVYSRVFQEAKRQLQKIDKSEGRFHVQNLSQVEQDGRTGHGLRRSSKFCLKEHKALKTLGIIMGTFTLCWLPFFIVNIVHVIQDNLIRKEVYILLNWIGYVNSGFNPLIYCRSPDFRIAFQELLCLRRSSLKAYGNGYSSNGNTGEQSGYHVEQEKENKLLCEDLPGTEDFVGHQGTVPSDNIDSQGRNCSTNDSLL
# Vif A3G: inhibitors of Vif binding to APOBEC3G peptide, primary screen, biochemical, TR-FRET, GST-Vif 1-94, biotin-A3G peptide, dose response retest (AID 1117319). Virion infectivity factor (Human immunodeficiency virus type 1 group M subtype B (isolate …. TR-FRET GST-Vif / biotin-A3G peptide binding; higher % means a stronger effect; test concentration not given here; strong numbers were not always called active. inhibition, %, or IC50 in µM where a hit was titrated. 0.57% of 260,000 active;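 active = above the screen mean plus three standard deviations and confirmed in dose response; inconclusive = results disagree or hit not tested in dose response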;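 also: Vif residues 1-94 fused to GST binding biotinylated APOBEC3G peptide 110-148; 0% = full assay without inhibitor and 100% = GST in place of GST-Vif; retest series ran down from 100 µM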
# ALR H2O2 inh: inhibitors of human ALR sulfhydryl oxidase, primary screen, biochemical, H2O2 detection, HRP-luminol luminescence, single point. FAD-linked sulfhydryl oxidase ALR (Homo sapiens), P55789. purified ALR, DTT oxidation. inhibition, % (test concentration not listed). 3.8% of 290,000 active. AID 485317, 2010;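 active = mean and each replicate at 75% or more; inconclusive = only one of the two met; inactive = neither met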;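 also: stock transfer was 7.5 nL into about 7.5 µL; 0% = neutral wells and 100% = wells with inactivated enzyme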
# Target sequence (P55789 whole entry, looked up): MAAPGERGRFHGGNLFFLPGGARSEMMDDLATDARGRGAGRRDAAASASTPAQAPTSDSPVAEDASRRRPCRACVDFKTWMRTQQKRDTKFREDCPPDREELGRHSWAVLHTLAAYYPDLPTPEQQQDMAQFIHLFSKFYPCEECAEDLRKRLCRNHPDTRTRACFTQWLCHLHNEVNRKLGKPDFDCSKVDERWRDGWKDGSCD
# RanGTP-Imp inh: inhibitors of RanGTP-importin-beta interaction, primary screen, biochemical, FRET, CFP-Ran, YFP-importin-beta, homogeneous; Ran GTPase (GTP-bound) - importin-beta complex; cell-free CFP-Ran/YFP-importin-beta FRET ratio; inhibition, % (concentration not given with the values); 1.1% of 300,000 active; AID 2216, 2009;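 active = most replicates above 15%; inconclusive = exactly half above 15%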;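 also: 0% = DMSO wells and 100% = Ran loaded with GDP instead of GTP; wells of about 40 µL received 100 nL stock; the first replicate is given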
# Calb FLC: C. albicans growth inhibition with fluconazole, primary screen, CaCi-2 strain, Alamar Blue fluorescence; AID 1979, 2009; 0.57% of 300,000 active; growth inhibition, % (test concentration not listed); C. albicans CaCi-2 (fluconazole-resistant clinical isolate) + fluconazole, 48 h;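 active = most replicates above 75%; inconclusive = exactly half above 75%; inactive = most below 75%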;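 also: all wells also contain fluconazole at 8 µg/ml as a sub-toxic cotreatment; 0% = median of DMSO wells and 100% = median of geldanamycin control wells; wells of about 8 µL received 7.5 nL stock; the first replicate is given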
# An asterisk follows results filed as active; ? = inconclusive; . = not tested or not shown; & = joins results of further samples.
# Each structure is followed by: LANA-H2A inh	HNF4A DNA FP	Beta2AR agonist	Vif A3G	ALR H2O2 inh	RanGTP-Imp inh	Calb FLC
- Cn1c(=O)c(=O)n(C)c2cc(S(=O)(=O)CCC(=O)Nc3c(F)c(F)c(F)c(F)c3F)ccc21
    -5.9	2.5	-7	.	-8	-1.3	-5
- COc1cccc(CN2CC(C(=O)NCCOc3ccccc3)CCC2=O)c1 (stereo not given)
    -3.6	7.3	1	.	1	-0.7	-9
- Cc1ccc(-n2cc(-c3ccccc3)c3c(=O)[nH]cnc32)cc1
    2.5	1.9	-2	-6%	1	3.2	-9
- CC1CC(C)CN(S(=O)(=O)c2ccc(C(=O)Nc3nnc(-c4cccs4)o3)cc2)C1 (stereo not given)
    -3.9	1.6	10	6%	72	5.9	-7
- CC1=C(C(N)=O)C(c2ccco2)C(C(N)=O)=C(C)N1
    1.1	-2.0	-1	?	14	0.6	-3
- Cc1ccc(Cn2c(=N)c(S(=O)(=O)c3ccc(C)cc3)cc3c(=O)n4ccccc4nc32)cc1
    14	7.9	11	.	-3	1.9	1
- c1ccc(-n2cnnc2SCc2nc3ccccc3s2)cc1
    1.5	18	3	-3%	4	1.6	-11
- OCCC1CN(Cc2cn[nH]c2C2CCCCC2)CCN1Cc1ccccc1 (stereo not given)
    -25	-4.2	1	-8%	-3	-3.9	25
- OC1(C(F)(F)F)CC(c2ccc3ccccc3c2)=NO1 (stereo not given)
    -4.3	3.7	8	1%	-20	0.8	-2
- O=C(CN1CCN(S(=O)(=O)c2ccc(Cl)cc2)CC1)NCc1cccs1
    -1.3	-0.4	-4	0%	-5	2.8	9
- CC1CN(C(=O)CSc2nnc(-c3cccs3)n2N)CC(C)O1 (stereo not given)
    -1.7	1.3	-10	5%	.	.	.
- CC1=CC2=NC(=O)/C(=C\c3ccc(OC(=O)c4ccco4)cc3)C(=N)N2O1
    0.3	0.5	4	-4%	0	3.9	?
- CCOC(=O)c1cc(S(=O)(=O)N2CC(C)CC(C)C2)cn1C (stereo not given)
    -1.0	-1.0	-2	.	1	-2.6	4
- CCCC(=O)NCCc1ccc(F)cc1
    1.6	0.9	2	-2%	.	-0.7	9
- Cc1noc(C)c1C(=O)OCC(=O)/C=C1/N(C)c2ccccc2C1(C)C
    .	1.9	9	-3%	.	.	.
- O=C(NC1CCCc2ccccc21)c1cc(S(=O)(=O)N2CCOCC2)ccc1F (stereo not given)
    9.5	-1.1	18	0%	-6	-2.7	-1
- COc1ccc(CCN2C(=O)CC(N3CCN(c4ccccn4)CC3)C2=O)cc1OC (stereo not given)
    -5.2	1.7	2	4%	-1	-12	-2
- Cc1cc(C)nc(SCC(N)=O)n1
    2.6	0.6	7	.	4	-2.9	-6
- CC(C)(C)N(Cc1ccccc1)C(=O)c1cccs1
    -1.3	0.2	-5	.	-4	2.6	6
- Cc1cc(S(=O)(=O)Nc2ccccc2C(=O)O)ccc1Cl
    3.0	-1.0	0	4%	2	0.1	32
- Cn1c(SCC(=O)Nc2ccccc2Cl)nnc1C1CC1
    1.0	-2.7	-1	.	.	1.2	-2
- CCCNC(=O)c1ccc2c(=O)c(O)c(-c3ccc(F)cc3)[nH]c2c1
    1.5	0.4	-3	.	-42	-35	89*
- O=C(CSc1ccc(Cl)cc1)N1N=CCC1c1ccccc1 (stereo not given)
    -4.6	-2.8	-4	-4%	-11	4.6	14
- FC(F)(F)c1nnc2ccc(NCc3cccnc3)nn12
    3.0	-8.3	-1	-2%	-7	1.2	-7
- COc1ccc(/C(O)=C2/C(=O)C(=O)N(Cc3cccnc3)C2c2ccco2)cc1OC (stereo not given)
    -2.9	-0.9	3	7%	2	-1.1	-23
- COc1ccc(N2CCN(CCCNC(=O)C(=O)c3c[nH]c4ccccc34)CC2)cc1
    0.1	-1.9	-2	3%	20	0.6	1
- COc1cc(Br)c(Br)cc1N
    1.8	-1.3	9	3%	-3	-2.0	-4
- COc1ccccc1CC(=O)Nc1ccc(-c2noc(COc3ccc(Br)cc3)n2)cc1
    0.3	-0.7	-8	-8%&10%	-1	1.1	-10
- C=CCNc1cc(C(F)(F)F)nc(-c2ccccn2)n1
    0.1	1.7	-6	-1%	-29	0.7	25
- CC1(C)CC2CC(C)(CN2S(=O)(=O)c2ccc(C(=O)Nc3ccc(Cl)c(S(=O)(=O)N4CCOCC4)c3)cc2)C1 (stereo not given)
    -10	-1.8	-4	2%	-5	-2.5	30
- Cc1ccc(C(=C2C3C=CC2C2C(=O)NC(=O)C32)c2ccc(C)cc2)cc1 (stereo not given)
    -0.9	-1.4	-5	-7%	-6	-4.5	-3
- CCOC(=O)CSc1nc(Cc2ccccc2)nc2ccccc12
    -1.7	-0.2	-16	-3%	6	6.6	9
- CCOc1ccccc1NC(=O)c1ccc(-n2cncn2)nc1
    -2.7	-0.4	4	?	-28	?	-2
- CCC(C)(NC(=O)Cc1c[nH]c2ccccc12)C(=O)NC1CCCCC1 (stereo not given)
    -3.7	-0.5	9	-2%	-4	2.5	7
- CC(=O)Nc1c(C(=O)O)[nH]c2ccccc12
    1.1	-3.0	0	-3%	7	3.3	-3
- CSc1ccc(CN2CCN(CCC(C)C)C(CCO)C2)cc1 (stereo not given)
    5.0	-3.9	-4	8%	.	-1.4	-1
- CCCn1c2c(c(O)c(C(=O)Nc3nccs3)c1=O)CCCC2
    -5.2	2.6	-14	-2%	6	?	30
- O=C(Nc1ccc2c(c1)OCCO2)N1CCOCC1
    -0.9	1.4	11	17%	-9	2.2	-8
- COC(=O)c1cc2c(=O)c3ccccc3oc2nc1/C=C/N(C)C
    6.1	110	-82	4%	7	-1.6	-9
- Nc1nnnn1/N=C/c1ccccc1
    4.2	-0.3	-1	4%	-20	0.3	9
- O=C(CSc1nnc(COc2ccccc2)o1)NCCc1ccccc1
    -4.0	1.1	-11	-8%	-2	-2.2	-5
- O=S(=O)(c1cccnc1)N1CCn2cccc2C1c1ccccc1F (stereo not given)
    2.1	1.6	1	6%	1	6.3	0
- Cn1c(SCC(=O)N/N=C/c2ccc([N+](=O)[O-])s2)nnc1-c1ccccc1
    6.7	1.1	-24	30%	-10	0.0	-2
- CC(NC(=O)CN1C(=O)NC2(CCCCCC2)C1=O)c1ccccc1 (stereo not given)
    78*	4.2	0	-1%	1	.	.
- CC(=O)N1CCN(c2ccccc2NC(=O)COc2ccc(Br)cc2)CC1
    6.3	3.8	1	0%	10	-0.9	12
- O=C(c1ccccc1)N1CCSc2sccc2C1=O
    .	-0.3	-5	.	.	?	-2
- CCOCCCNc1nc(=S)[nH]c2cc(OC)c(OC)cc12
    -3.7	2.8	-5	-1%	-6	6.1	2
- COc1cc(C(=O)NCCN2CCOCC2)cc(OC)c1OC
    3.1	-1.4	4	0%	5	1.6	2
- O=C(Nc1ccc(-c2n[nH]c(=S)o2)cc1)c1ccccc1
    -2.7	2.9	6	2%	7	2.2	-2
- ClC1(Cl)CC1CSc1nnc(-c2ccncc2)o1 (stereo not given)
    -2.7	1.2	-2	.	.	-4.0	-3
- Cn1nccc1C(=O)Oc1ccc(/C=N/NC(=O)c2ccccc2O)cc1
    0.7	3.0	16	-10%	93*	-1.9	-12
- CC(C)Oc1ccc(/C(O)=C2/C(=O)C(=O)N(CCN(C)C)C2c2cccs2)cc1 (stereo not given)
    9.7	6.1	3	-16%	-14	1.3	-3
- CC1=C(C(=O)Nc2ccccc2)C(c2coc3ccccc3c2=O)C2=C(CCCC2=O)N1 (stereo not given)
    -6.6	-1.3	-9	.	-4	3.4	4
- CCCC(=O)NC(=S)Nc1ccccc1C(F)(F)F
    0.2	-0.8	-3	-6%	-11	?	-1
- CCOc1cc2[nH]c(=O)n(CCCN3CCCC3=O)c(=O)c2cc1OCC
    -2.2	0.3	-1	-8%	.	?	-3
- CCCn1c(SCC(=O)NCCc2ccccc2)nnc1-c1cccnc1
    -1.2	3.1	-4	17%	-9	-2.8	6
- Nc1nc(-c2ccc(Cl)cc2)nc(-c2ccc(Cl)cc2)n1
    -5.6	-0.9	1	-14%	.	-5.2	4
- O=C(O)CC(NC(=O)Cc1ccc(Cl)cc1)c1ccco1 (stereo not given)
    -1.5	.	.	-8%	-2	1.5	-4
- C=CCn1cccc(C(=O)Nc2ccc(SC)cc2)c1=O
    -6.1	-0.8	-6	-7%	-5	-1.8	6
- Cc1ccccc1N(C(=O)Cn1nnc(-c2cccs2)n1)C(C(=O)NCCC(C)C)c1ccco1 (stereo not given)
    0.3	-2.3	-6	4%	-15	?	1

# New compounds follow:
# Each structure is followed by: LANA-H2A inh	HNF4A DNA FP	Beta2AR agonist	Vif A3G	ALR H2O2 inh	RanGTP-Imp inh	Calb FLC
- Cc1ccccc1NC(=O)CSc1cn[nH]n1
    -0.8	-4.7	-3	.	6	-0.8	15
- COc1ccc2c(c1)-c1c(ssc1=S)C(C)(C)N2
    -1.5	-4.8	5	3%	51	-0.3	41
- CC1=Nc2ccc(C)cc2/C1=C/c1c(N)n2c(S(=O)(=O)C(C)C)nsc2nc1=O
    .	0.8	13	15%	.	11	12
- COC(=O)c1[nH]c(C)c(/C(O)=C2\C(=O)C(=O)N(CCN(C)C)C2c2ccco2)c1C (stereo not given)
    6.4	7.9	3	28%	.	9.1	18
- O=C(C(Cc1ccccc1)n1cccc1)N1CCCCC1 (stereo not given)
    -1.8	-0.6	5	-6%	.	-2.8	-4
- CC(C)(C)C1=C[C@@H](CO)C[C@@H](CO)C1
    4.5	0.3	6	-2%	-2	0.3	-2
- Cc1cc(S(=O)(=O)NC2CCCC2)ccc1F
    -3.2	0.7	36	-3%	0	?	7
- Cc1cc2cc(CNC(=O)Nc3ccccc3)ccc2[nH]1
    4.5	-1.0	7	2%	0	0.9	14
- Cc1ccsc1C(=O)NC1CCCN(Cc2ccc(Cl)cc2)C1 (stereo not given)
    2.9	0.8	-7	.	-5	4.8	-44
- O=C(Nc1ccccc1)N1CCn2c1nc1ccccc12
    -0.1	0.6	-5	1%	-10	1.8	0
- CCCCn1c(CCC(=O)O)nc2cc(S(=O)(=O)N(C)C)ccc21
    6.7	7.3	0	7%	-5	-1.7	1
- O=C(N/C(=C\c1ccco1)C(=O)N1CCOCC1)c1ccco1
    0.2	0.6	6	26%	1	-2.3	16
- O=C(Cc1ccc(S(=O)(=O)N2CCOCC2)s1)N1CCN(c2cccc(C(F)(F)F)c2)CC1
    0.4	6.8	18	.	-14	2.1	3
- O=C(NCCS(=O)(=O)N1CCN(c2ccccc2F)CC1)c1ccc(Cl)cc1
    4.5	-1.9	-8	1%	0	-6.1	2
- Cc1cc(C(=O)OCC(=O)Nc2cccc(S(=O)(=O)N(C)C)c2)c(C)o1
    -2.2	1.2	-7	-11%	-23	-1.4	-6
- O=C1NC[C@H](Cc2ccccc2)N(CC2CCN(CCCC3CCCC3)CC2)C1=O
    .	-0.2	-7	-1%	.	.	.
- CN(NS(=O)(=O)c1ccc(Br)cc1)c1nc(C(F)(F)F)nc2ccccc12
    -1.6	0.9	3	1%	0	.	-30
- Cc1cc(C)n(-c2nc3ccccc3c(=O)n2OCC(N)=O)n1
    0.1	5.0	-4	0%	-5	0.4	10
- CCOc1ccc(OCC)c(NC(=O)c2ccc(CNc3c(N4CCOCC4)c(=O)c3=O)cc2)c1
    4.0	0.2	5	31%	.	-4.5	-4
- O=C(c1ccco1)N1CCN(S(=O)(=O)c2ccc(Cl)s2)CC1
    0.5	-1.9	4	12%	-3	0.1	18
